Screening results deposited in PubChem by National Center for Advancing Translational Sciences (NCATS).
HSD17B inh: inhibitors of human HSD17B10 dehydrogenase. Q99714. recombinant HSD17B10, NADH fluorescence kinetic; many of its hits are not listed in these tables. Potency, µM (series often up to 57.1 µM), inactives show at the highest dose activity change, negative = inhibition, usual class: inhibitors. actives 7.6% (n = 75,000); active means well fitted inhibition curve with a large enough effect; inconclusive means small, poorly fitted or top-dose-only effect; inactive means no such curve, though single readings can be large or run the other way;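 further: the protocol describes HADH2 (HSD17B10) and not the HSD17B4 of the title; nearly all actives have a fitted effect of over 70% in size; most hits overshoot -100% by far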
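20 nM HADH2, pH 9.0 Tris/Tween; cpd preinc 15 min RT; start w/ 1 mM NAD+ + 90 uM b-hydroxybutyryl-CoA; kinetic fluor ex360/em450 q30s x 4 min; delta last-first.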
* marks the source's active call; other numbers are inactive results; ? = inconclusive; [ ] = dose if it differs, or a comment. On the % scale 0 is the no-effect control and ±100 the full control effect; potency means the concentration at half of the fitted maximal effect. These rows are one share of the data, so the mix of outcomes need not match the whole.

SMILES	HSD17B inh
CCC(=O)N1CCc2cc(S(=O)(=O)NCCC(=O)N3CCN(Cc4ccccc4)CC3)ccc21	-3%
CC(C)NC(=O)N1CCC2(CC1)CCN(C(=O)c1ccncc1)CC2	2%
Cc1cc(C)nc(SCCn2c(N3CCC(C)CC3)nc3c2c(=O)n(C)c(=O)n3C)n1	20%
O=C(CN1CCN(S(=O)(=O)c2ccccc2)CC1)Nc1cccc(C(F)(F)F)c1	-8%
OC[C@@H](O)CNc1ncnc2ccccc12	6%[11.4 µM]
COc1ccc(CN2CCN(S(=O)(=O)c3ccccc3)CC2)c(OC)c1	2%
CCCc1cc(=O)n2[nH]c(-c3ccc(Br)cc3)cc2n1	-8%
Cc1nc(NCc2ccco2)c2c3c(sc2n1)CCC3	-18%
CCOC(=O)C1CCCN(S(=O)(=O)c2ccc(OC)c3ccccc23)C1 (centres undefined)	-20%
O=C(Nc1cc(=O)c2ccccc2o1)N1CCOCC1	?
CCCN1C2=NCCN2c2cc(C)c(C)cc21	2%
Nn1cnnc1SC1CCCCC1NS(=O)(=O)c1ccccc1 (centres undefined)	7%
CCOc1ccc(OCC)c(NC(=O)CN2CCN(c3cccc(C)c3C)CC2)c1	-2%
Cc1nnc(SCCn2c(N3CCCC(C)C3)nc3c2c(=O)[nH]c(=O)n3C)s1 (centres undefined)	4%
CC1CCN(c2nc3c(c(=O)n(C)c(=O)n3C)n2CCSc2ncccn2)CC1	18%
COC(=O)CCCCCN1C(=O)NC(c2ccc(-c3ccccc3)cc2)C(C(=O)OCc2ccccc2)=C1C (centres undefined)	-28%
Cc1ccc(-n2c(=O)[nH]c3c(C(N)=O)nc(-c4ccc(C)o4)nc32)cc1	25µM*
COc1ccc(OCC(=O)Nc2ccc(C)cc2)cc1	-4%
O=C(CSc1nccn1-c1ccccc1)N1CCc2ccccc21	-4%
O=c1c(-c2ccc(F)cc2)nc2cncnc2n1-c1ccccc1	?
CCCCOc1ccc(CN2CCCCC2)cc1	6%
CN(C)C(=O)COc1ccc2cc(-c3ccccc3)c(=O)oc2c1	10µM*
CCC(OC(=O)c1cc2sccc2n1C)C(=O)NCc1ccco1 (centres undefined)	-6%
CCCCC(=O)Nc1nnn(CCC)n1	7%
O=C(OCCN1C(=O)c2ccccc2C1=O)c1cc(S(=O)(=O)N2CCOCC2)ccc1F	6%
CC(C)CC1(C(=O)O)C=CCN1C(=O)c1ccccc1 (centres undefined)	9%
CCOc1ccc(NC(=O)N2CCC(n3c(=O)[nH]c4ccccc43)CC2)cc1	7%
COCc1cc(=O)n2[nH]c(-c3cccc(Br)c3)cc2n1	-13%
CC(C)CNS(=O)(=O)c1ccc(S(=O)(=O)N2CCCN(Cc3ccccc3)C2)cc1	3%
CNc1nc(SCC(=O)OC)nc(N2CCOCC2)n1	12%
Cn1cnnc1SCC(=O)Nc1sc2c(c1C(N)=O)CCC2	16µM*
O=C(NCCc1ccccc1)C1CCCN(S(=O)(=O)c2cccc3nonc23)C1 (centres undefined)	4%
COc1cccc(-c2nnc(SCCC(=O)O)n2C)c1	14%
FC(F)(F)c1cc(-c2ccco2)nc(NCc2ccco2)n1	20µM*
CC(=O)N1c2c(cc(Br)cc2S(=O)(=O)NCc2ccc3c(c2)OCO3)CC1C (centres undefined)	3%
Cc1ccc(S(=O)(=O)CCc2ccccn2)cc1	15%
CSc1n[nH]c(NC2=CC(=O)CCC2)n1	-6%
Cc1cc(C(F)F)n2ncc(C(=O)N3CCc4ccccc4C3)c2n1	-7%
CCOc1c(S(=O)(=O)N2CCCC2)ccc(Cl)c1Cl	-6%
C=C(C)CC1(c2ccccc2)Oc2ccccc2-c2nc3cc(Cl)c(Cl)cc3nc21 (centres undefined)	?
COc1ccc(C)cc1-n1nnnc1SCn1nnc2ccccc2c1=O	6%
COc1ccc2cc(CN(CCc3ccccc3)Cc3nnnn3CC3CCCO3)c(=O)[nH]c2c1 (centres undefined)	-9%
O=c1c(-c2ccc(F)cc2)coc2c3c(ccc12)OCCO3	2%
COC(=O)c1ccc(C23CC4(C2)[C@H](CN(Cc2cccnc2)[C@@H]4c2ccccc2)C3c2ccccc2)cc1 (some centres undefined)	-1%
CC(C)CCn1c(CN(C)Cc2ccccc2)nc2c1c(=O)n(C)c(=O)n2C	15%
Cc1cc(N2CCC(C(=O)NC3CCCCC3)CC2)nc(-c2ccccc2)n1	4%
NS(=O)(=O)c1ccc(CCNC(=O)C2CCCN2C(=O)OCc2ccccc2)cc1 (centres undefined)	11%
CCn1c(N2CCN(CC(=O)c3ccc(OC)cc3)CC2)nc2ccccc21	-2%

Exported as labelled records: part of the list above
compound: COc1ccc(C)cc1-n1nnnc1SCn1nnc2ccccc2c1=O
- HSD17B inh = 6%
compound: COc1ccc2cc(CN(CCc3ccccc3)Cc3nnnn3CC3CCCO3)c(=O)[nH]c2c1 (centres undefined)
- HSD17B inh = -9%

(next part)
SMILES	HSD17B inh
CCCCCNCCCCC	3%
Cc1cccc(C)c1NC(=O)N1C2CCCC1CC(NC(=O)C(C)(C)C)C2 (centres undefined)	1%
S=c1nc(-c2ccccc2)n(Cc2ccco2)c2c1CCCC2	-8%
COc1cc(Cl)ccc1NC(=O)COc1ccccc1C(=O)N1CCN(c2ccc(O)cc2)CC1	2%
O=S(=O)(Cc1ccccc1)N1CCC(c2nc(-c3cccs3)no2)CC1	4%
COc1cccc(-c2nnc(SCC(=O)N3CC(C)CC(C)C3)o2)c1 (centres undefined)	0%
CCCOC(=O)c1c(N)sc2c1CCC2	-11%
Cc1ccccc1-c1nnc(SCc2ccccc2F)o1	-4%
N=c1c2c(-c3ccccc3)c(-c3ccccc3)oc2ncn1CCCN1CCOCC1	142%[activator]
COC(=O)C(C(=O)NCC1CCCO1)C1CCCCCC1 (centres undefined)	1%
O=C(Cc1cn2ccsc2n1)OCc1nc2ccccc2s1	?
Cc1ccc2cc(CN(Cc3cccs3)C(=O)c3ccco3)c3nnnn3c2c1C	-3%
C1CCC(c2nn3c(-c4n[nH]c5c4CCC5)nnc3s2)CC1	-13%
CC(C)Oc1ccc(C(=O)N2CCCC2C(=O)O)cc1 (centres undefined)	4%
CCOc1ccc(-c2[nH]ncc2-c2ccc(OC)c(OC)c2)c(O)c1	?
CCOc1cc(-c2nc3ccccn3c2NCC2CCCO2)ccc1O (centres undefined)	32µM*
Cc1cc(C)nc(NS(=O)(=O)c2ccc(NC(=O)C3CC(=O)N(c4ccccc4)C3)cc2)n1 (centres undefined)	1%
CCC(C)Sc1nc2c([nH]c3ccccc32)c(=O)n1C (centres undefined)	3%
CCn1c(COc2ccccc2C)nnc1SCC(=O)NCc1ccccc1	3%
CC[C@H](CC[C@@H](C)C1CC[C@H]2[C@@H]3CC=C4C[C@@H](O)CC[C@]4(C)[C@H]3CC[C@]12C)C(C)C (some centres undefined)	11%
COc1ccc(C(=O)NC(C)c2nc3ccccc3[nH]2)cc1OC (centres undefined)	3%
CN1CCN(S(=O)(=O)c2cccc(C(=O)N(c3ccccn3)C3CCCCC3)c2)CC1	2%
Cc1noc(C)c1CSCC(=O)N1CCN(c2ccc(F)cc2)CC1	-1%
Cc1ccc(C)c2[nH]c(=O)c(CN(CCN3CCCC3)C(=O)Nc3ccc(F)cc3)cc12	1%

As entered above:
HSD17B inh with `CC(C)Oc1ccc(C(=O)N2CCCC2C(=O)O)cc1` (centres undefined) stands at 4%
HSD17B inh with `CN1CCN(S(=O)(=O)c2cccc(C(=O)N(c3ccccn3)C3CCCCC3)c2)CC1` stands at 2%

Later entries.
SMILES	HSD17B inh
N#Cc1cc(N)c(Nc2ccccc2)cc1C#N	-19%
CCCN1Cc2cccc(C(=O)Nc3ccc(CN4CCCC4)cc3)c2C1=O	5%
Cc1ccc(C2c3sc(=O)[nH]c3SC3C(=O)NC(=O)C32)cc1 (centres undefined)	?
Cc1nc2ccc(N3C(=O)CCC3=O)cc2[nH]1	0%
COC(=O)c1ccc(OCC(O)CN2C(=O)NC(C)(C)C2=O)cc1 (centres undefined)	-4%
CCOC(=O)NC(=O)CSc1nc2ccc(OCC)cc2[nH]1	3%
COc1cccc(OC)c1/C(O)=C(\C#N)c1nc2ccccc2[nH]1	-4%
Cc1nc(SCC(=O)c2c(C)[nH]c3ccccc23)c2c(=O)n(C)c(=O)n(CC(C)C)c2n1	0%
Cc1cc(C)c(NC(=O)c2ccc(S(=O)(=O)N(C)C)cc2)c(C)n1	3%
CCOC(=O)c1c(C)n(OCc2ccccc2)c2ccc3c(no[n+]3[O-])c12	-3%
CCn1ccnc1C(O)c1ccc(N(C)C)cc1 (centres undefined)	-5%
Cc1ccc(C)c(C(=O)NC2CC(C)(C)NC(C)(C)C2)c1	9%
COc1ccc(S(=O)(=O)N2C3CCC2CC(NC(=O)C2CC2)C3)cc1 (centres undefined)	7%
Cc1ccc(C(=O)CSc2nnc(CNc3nc(-c4ccccc4)cs3)n2C)cc1	-27%
O=C(Nc1ccc2c(c1)OCCO2)C1CCN(S(=O)(=O)c2cccs2)CC1	-9%
CCCCC(CC)COC(=O)COc1ccc(Cl)cc1Cl (centres undefined)	-1%
O=C(Cn1cnc2c(nnn2Cc2ccc(F)cc2)c1=O)N1CCCc2ccccc21	6%
O=C(O)c1ccc(Cl)c(S(=O)(=O)N2CCCCCC2)c1	5%
Cc1cccc(C)c1NC(=O)Cn1cnc2c(=O)n(C)c(=O)n(C)c21	6%
CN1CCN(CCNC(=O)c2cc3c(=O)n(C)c4ccccc4c3n2C)CC1	?
Cn1c(SCC(=O)c2ccc(F)cc2)nnc1-c1cnccn1	-8%
Cc1cc(Cc2cc(C)cc(C(C)(C)C)c2O)c(O)c(Cc2cc(C)cc(C(C)(C)C)c2O)c1	1%[11.4 µM]
COc1ccc(-n2nc(C(=O)NCc3ccco3)c3c4ccccc4n(C)c3c2=O)cc1	13µM*
NS(=O)(=O)c1ccc(NC(=O)CSc2nnc(-c3cnccn3)n2-c2ccccc2)cc1	3%
CC(=O)OC(C#CCN1CCOCC1)c1ccccc1 (centres undefined)	9%
O=C(O)[C@@H](O)[C@@H](O)[C@H](O)[C@H](O)CO	5%[11.4 µM]
COc1ccc(CNC(=O)C(C)OC(=O)c2cccn2C)cc1 (centres undefined)	18%
CC(C(=O)N=c1sc2ccccc2n1C)N1C(=O)C2CC=CCC2C1=O (centres undefined)	7%
Cc1ccc(-c2noc(CN(C(=O)c3cccc(Br)c3)C(C)C)n2)cc1	-9%
CCCn1c(=N)n(CC(O)COc2cccc(C)c2)c2ccccc21 (centres undefined)	6%
CCCN(C(=O)c1ccccc1N)c1c(C)n(C)n(-c2ccccc2)c1=O	2%
Brc1c(CSc2nncn2-c2ccccc2)nc2ncccn12	25µM*
CC1(C)COCN1COC1CCCCC1	8%[11.4 µM]
CCN(CC)CCOC(=O)c1cccc(Cl)c1	2%
O=C(COC(=O)c1ccc(Br)c(S(=O)(=O)N2CCOCC2)c1)NCC1CCCO1 (centres undefined)	5%
COc1ccc(-c2nsc(SCC(=O)Nc3cc(C)on3)n2)cc1	-13%

Given in markdown: entries from further up.
| SMILES | HSD17B inh |
| --- | --- |
| O=C(CSc1nccn1-c1ccccc1)N1CCc2ccccc21 | -4% |
| CCOC(=O)NC(=O)CSc1nc2ccc(OCC)cc2[nH]1 | 3% |
| COC(=O)c1ccc(C23CC4(C2)[C@H](CN(Cc2cccnc2)[C@@H]4c2ccccc2)C3c2ccccc2)cc1 (some centres undefined) | -1% |

(further entries)
SMILES	HSD17B inh
C[C@H](CO)NC(=O)[C@H](C)[C@@H]1C[C@@]1(C)[C@@H](NC(=O)OCc1ccccc1)c1ccccc1	-4%
COc1ccc2ccccc2c1CN1CCCC(CO)C1 (centres undefined)	4%
O=C(NCO)c1cccnc1	-6%
O=C(CCSc1nnc(-c2ccncc2)o1)Nc1ccccc1	3%
COc1cc(C(c2sc3nc(C)nn3c2O)N2CCc3ccccc3C2)cc(OC)c1OC (centres undefined)	25µM*
Cc1ccc(S(=O)(=O)c2c(C)nn(C(C)(C)C)c2OC(=O)c2ccco2)cc1	-6%
CCOC(=O)c1cnc(N2CCOCC2)[nH]c1=O	2%
O=C(CSCc1ccccc1)N1CCN(Cc2ccc3c(c2)OCO3)CC1	2%
Cc1cc(N)c(-n2cc3c(=O)n(C)c(=O)n(C)c3c2)cc1C	32µM*
COc1ccc(Cn2nnnc2C(C(C)C)N2CCN(c3ccccc3OC)CC2)cc1 (centres undefined)	3%
COCc1cc(C)nc(Nc2cc(C)ccc2C)c1C#N	-12%
C=C(C)Cn1c(=O)c2c(nc3n2CCN3c2cccc(Cl)c2C)n(C)c1=O	7%
Cc1cccc(NCC(O)Cn2cnc3c2c(=O)n(C)c(=O)n3C)c1 (centres undefined)	5%
COc1cc(/C=C\C(=O)N2CCC=CC2=O)cc(OC)c1OC	10%[25.6 µM]
CCc1c(O)nc(SCC(=O)Nc2ccc(C)cc2)n(C2CCCCC2)c1=O	2%
CC(C)(C)NS(=O)(=O)c1ccc(CCC(=O)N2CCCCC2)cc1	4%
COc1cc(NC(=O)c2ccc(COCC(F)(F)F)o2)cc(OC)c1OC	2%
CC(NC(=O)c1cn(C)c2ccc(S(=O)(=O)N3CCCC3)cc2c1=O)c1ccc2c(c1)OCCO2 (centres undefined)	6%
CC(C)(C)C1=C(C#N)C(c2ccc3c(c2)OCO3)C(C#N)=C(N)O1 (centres undefined)	?

Part of the list above, as labelled records.
> CC(C)(C)NS(=O)(=O)c1ccc(CCC(=O)N2CCCCC2)cc1
  HSD17B inh: 4%

> CC(C)(C)C1=C(C#N)C(c2ccc3c(c2)OCO3)C(C#N)=C(N)O1 (centres undefined)
  HSD17B inh: ?

> COc1cc(/C=C\C(=O)N2CCC=CC2=O)cc(OC)c1OC
  HSD17B inh: 10%[25.6 µM]

> CCc1c(O)nc(SCC(=O)Nc2ccc(C)cc2)n(C2CCCCC2)c1=O
  HSD17B inh: 2%
